VDR inh = blocks the human vitamin D receptor; P11473; VDR-SRC2-3 peptide fluorescence polarization, 2 h; Potency, µM, for the others: max response, negative = inhibition, hits mostly inhibitors; 400,000 compounds, 0.93% hits; active = well fitted inhibition curve with a large enough effect; inconclusive = small, poorly fitted or top-dose-only effect, or another doubt; inactive = no such curve, though single readings can be large or run the other way; also: series mostly up to about 120 µM
Target sequence (P11473 whole entry, looked up): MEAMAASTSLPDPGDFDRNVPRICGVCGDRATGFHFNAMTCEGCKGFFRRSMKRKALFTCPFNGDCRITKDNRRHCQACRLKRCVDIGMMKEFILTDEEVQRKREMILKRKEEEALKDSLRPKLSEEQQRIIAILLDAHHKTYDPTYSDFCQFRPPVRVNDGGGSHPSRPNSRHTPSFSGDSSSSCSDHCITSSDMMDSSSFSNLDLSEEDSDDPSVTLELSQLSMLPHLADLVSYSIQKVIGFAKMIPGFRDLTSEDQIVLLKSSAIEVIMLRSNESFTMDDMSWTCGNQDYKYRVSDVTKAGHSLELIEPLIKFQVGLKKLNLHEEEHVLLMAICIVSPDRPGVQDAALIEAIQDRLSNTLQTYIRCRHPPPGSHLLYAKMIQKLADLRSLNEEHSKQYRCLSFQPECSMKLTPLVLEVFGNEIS
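Reagent solutions, kept cold and dark, are dispensed first; compounds are then pinned in at 23 nl, plates briefly spun, and incubated 2 h at ambient temperature. Inhibition of VDR–SRC2-3 peptide binding is read by fluorescence polarization.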
The depositor's hits bear a star; ? = inconclusive; & = joins results of further samples. % is scaled to controls: 0 for no effect and ±100 for the full control effect; potency is read from the fitted curve at half-maximal effect. Only part of the results is shown. The share of hits here may be higher or lower than overall.

#	smiles	VDR inh
1	CCSc1ccccc1C(=O)N1CCCC1	-3%
2	C=CCNC(=O)C1CC(=O)N(c2ccc(OCC(=O)Nc3ccc(C)cc3)cc2)C1 (configuration not stated)	-1%
3	O=C(CSCc1ccc(F)cc1)Nc1nc2c(s1)CCCC2	0%
4	CC(NC(=O)CN1CCN(c2cccc(Cl)c2)CC1)c1ccccc1 (configuration not stated)	-13%
5	Cc1ccc(C(C(=O)NC2CCCC2)N(C(=O)c2csnn2)c2cccc(F)c2)o1 (configuration not stated)	-24%
6	CC(C)C/C(O)=C/c1nc2cc(Cl)ccc2oc1=O	-8%
7	O=C(Nc1ccncc1)c1ccccc1F	-6%
8	COc1cccc(N=CC2=C(O)CCCC2=O)c1	-8%
9	CCOc1ccc(S(=O)(=O)Nc2ccc(-c3ccc(OC)nn3)cc2)cc1	22%
10	c1csc(-c2nnc(COc3ncnc4sccc34)o2)c1	0%
11	COc1ccc(NC(=O)/C=C/C(=O)O)c(OC)c1	-11%
12	CSc1cccc(NC(=O)c2sc3nc4n(c(=O)c3c2C)CCC4)c1	-15%
13	CCN(CC)c1ccc(NC(=O)CCc2nnc3ccc(N4CCCCC4)nn23)c(C)c1	0%
14	CCCCc1c(C)nc(N2CCCC2)[nH]c1=O	-18%
15	Cc1cc(C)cc(OCC(=O)NC2=NCCS2)c1	-5%
16	O=C(CSc1nnc(-c2ccco2)o1)NCCc1ccccc1	19%
17	S=c1[nH]nc(-c2cccnc2)n1Cc1ccccc1	3%
18	N#CCSc1nnc(Nc2ccccc2)s1	14%
19	CCOC(=O)C1=C(O)/C(=C/c2ccc(OCC(=O)O)c(OC)c2)SC1=Nc1ccc(OCC)cc1	-2%
20	O=C(Nc1ccccc1)/C(=C/c1cccc(Br)c1)NC(=O)c1ccco1	-26%
21	CCc1ccc(NC(=S)NC2CC3CCC(C2)N3Cc2ccco2)cc1 (configuration not stated)	17%
22	O=C(Cc1ccccc1)Nc1ccc(CN2CCOCC2)cc1	-11%
23	COc1ccc(CNC(=O)CSc2nc(SC)ns2)cc1	4%
24	O=C(Cc1c[nH]c2ccccc12)NCC(=O)Nc1ccc(F)c(F)c1F	-10%
25	COCCn1c(-c2ccc(OC)cc2)nc2oc3cc(OC)ccc3c(=O)c2c1=O	3%
26	O=S(=O)(c1cnc[nH]1)N1CCN(c2ccccc2)CC1	-3%
27	CCOC(=O)c1c(NC(=O)/C=C/c2ccc(OCC)c(OC)c2)sc2c1CCC2	-10%
28	CCOc1ccc(CNc2ncc(-c3ccccc3)n2C)cc1	-14%
29	O=C(COC(=O)c1ccncc1)Nc1cccc2ccccc12	8%
30	Cc1nc(-n2nc(C)c(CCC(C)C)c2C)sc1C(=O)Nc1cccc(Cl)c1C	-12%
31	COCC(=O)n1nc(-c2ccco2)nc1NCc1ccccc1Cl	13%
32	CN(Cc1ccccc1F)C(=O)C1CCCN(C(=O)c2ccc(Cl)cc2)C1 (configuration not stated)	2%
33	Cc1nc(SCC(=O)Nc2ccc(CN3CCCC3)cc2)c2c(C)c(C)sc2n1	-10%
34	COc1cccc(C(=O)Nc2cc([N+](=O)[O-])ccc2N2CCN(C)CC2)c1	-3%
35	CC(=O)Nc1cccc2cccnc12	15%
36	O=C(O)c1ccc(C2SCC(=O)N2Cc2ccco2)cc1 (configuration not stated)	20%
37	O=C(NCC(O)COc1ccc([N+](=O)[O-])cc1)c1ccccc1 (configuration not stated)	-9%
38	Cc1cc(C)cc(NC(=O)CSc2nc3c([nH]c4ccccc43)c(=O)n2-c2ccc(F)cc2)c1	-7%
39	CNC(=O)c1nnn(-c2ccccc2)c1C(=O)NC	-8%
40	CCc1ccc(NS(=O)(=O)c2ccc3[nH]cc(C(=O)N4CCc5ccccc54)c(=O)c3c2)cc1	-3%
41	CN1CCN(C(=O)C2=C[C@H](C(C)(C)C)C[C@H](OCCCCO)O2)CC1	-1%
42	COc1cccc(CN(C)C(=O)c2cc(-c3cccs3)nc3ccccc23)c1	5%
43	Cn1nc(-c2ccc(C(=O)N3CCN(Cc4ccccc4)CC3)cc2)c2ccccc2c1=O	-1%
44	COC(=O)c1cc(C(=O)OCC(=O)Nc2cc(C)on2)cc([N+](=O)[O-])c1	-9%
45	CCOc1ccc(NS(=O)(=O)c2ccc(Cl)c(C(=O)N(C)Cc3cccnc3)c2)cc1	-8%
46	CCOC(=O)C1=C(c2ccccc2)OC(N)=C(C#N)C1C1CCCCC1 (configuration not stated)	-16%
47	CCCN(CC(=O)Nc1ccc(C)cc1Br)CC(=O)Nc1ccc(F)c(F)c1F	-1%
48	CN(C)c1cccc(C(=O)OCC(=O)N(Cc2ccccc2)C2CCS(=O)(=O)C2)c1 (configuration not stated)	7%
49	CCC(NC(=O)c1cc(COc2cncc(Cl)c2)on1)c1ccc(C)cc1 (configuration not stated)	3%
50	Cc1ccc(C(=O)NC(=S)NNC(=O)COc2ccc([N+](=O)[O-])cc2)cc1	-17%

(listing goes on)
#	smiles	VDR inh
51	Cc1ccccc1NC(=O)CN1C(=O)C2(SCC(=O)N2c2ccc(F)cc2)c2ccccc21 (configuration not stated)	-10%
52	CCc1ccc(NCc2cc3c(C)nn(-c4ccccc4)c3[nH]c2=O)cc1	5%
53	CCN1CCN(CC(=O)N2N=C(c3cccs3)CC2c2ccc(F)cc2)C(=O)C1=O (configuration not stated)	-18%
54	COc1ccccc1NC(=O)COC(=O)c1cc(C)oc1C	-13%
55	CCCCCCOc1ccc(C(=O)NCCCn2ccnc2)cc1	-26%
56	COc1ccc(C(=O)N2CCC[C@@]3(CCN(c4ccccn4)C3)C2)cc1	-6%
57	CCOc1ccc(-n2c(-c3ccccc3)c[nH]c2=S)cc1	-9%
58	Cc1cccc(C)c1OCc1n[nH]c(=S)n1N	1%
59	CCOC(=O)C1(Cc2ccccc2)CCN(Cc2cnn(-c3ccccc3)c2)CC1	-2%
60	Cn1c(=O)n(C)c2cc(NC(=O)c3cccc([N+](=O)[O-])c3)c(Br)cc21	-18%
61	Cc1ccc(NC(=O)Cn2cc(S(=O)(=O)N3CCCC3)c(S(=O)(=O)N3CCCC3)c2)cc1F	7%
62	Brc1cccc(C2Nc3cccc4cccc(c34)N2)c1	-14%
63	CCn1c2ccccc2c2cc(NC(=O)COC(=O)c3ccccc3O)ccc21	-15%
64	COCCn1c(=O)[nH]c2cc(C(=O)NCCN3CCN(c4cccc(Cl)c4)CC3)ccc2c1=O	-13%
65	CCc1ccc(NC(=O)N2CCN(Cc3cc(=O)n4nc(-c5ccccc5OC)sc4n3)CC2)cc1	9%
66	CC(C)c1nnc(NC(=O)Cc2cccs2)s1	?
67	COc1ccc(-c2csc(-c3c(N)c(C(=O)c4ccccc4)n4ccccc34)n2)cc1	7%
68	O=C(CNC(=O)Cc1ccccc1)NCC(=O)OCc1ccccc1	26%
69	Cc1nn(CC(C)C)c(=S)[nH]c1=O	-8%
70	CCOC(=O)c1c(NC(=O)CN2C(=O)NC3(CCCCC3C)C2=O)sc(C(=O)N(C)C)c1C (configuration not stated)	-5%
71	COc1ccccc1Oc1ncnc2c1cnn2-c1ccccc1	5%
72	Cc1cc(C)cc(C(=O)Nc2ccc(NC(=O)Cc3ccccc3)cc2)c1	-1%
73	c1cncc(-c2cncnc2-n2ccnc2)c1	15%
74	O=C(Nc1cccc(C(F)(F)F)c1)c1cccc(NS(=O)(=O)c2ccc(Br)c(C(=O)O)c2)c1	-2%
75	CCOC(=O)c1c(C(=O)OCC)c(C)n(N2C(=O)CSC2=S)c1C	29%
76	COc1ccc(C)cc1NC(=O)CN1CCCN(S(=O)(=O)c2ccc(Br)cc2)CC1	6%&0%
77	COc1cccc(S(=O)(=O)Nc2ccc(C(=O)Nc3ccncc3)cc2)c1	-24%
78	COc1ccc(CNC(=O)C2CCCN2S(=O)(=O)c2ccccc2)cc1 (configuration not stated)	3%
79	CC1CCN(S(=O)(=O)c2nnc(NC(=O)c3cccc(Br)c3)s2)CC1	10%
80	O=C(CSc1ccc(Cl)cc1)Nc1ccc(-c2nc3ccccc3[nH]2)cc1	2%
81	Cn1c(=O)c2nc(SCC(=O)Nc3ccc(OC(F)(F)F)cc3)n(C)c2n(C)c1=O	14%
82	COC(=O)c1cccc(NC(=O)C2C3CCC(C3)C2C(=O)O)c1 (configuration not stated)	6%
83	Cc1nn(C(C)(C)C)c(NC(=O)c2ccc(Cl)cc2)c1Br	-1%
84	C=C1CCN(C(Cc2ccccc2)C(=O)NC2CCN(Cc3ccccc3)CC2)S(=O)(=O)c2ccccc21 (configuration not stated)	-21%
85	CC(=O)c1ccccc1OCC(O)CNC1CCCC1 (configuration not stated)	11%
86	C=CCNc1ncnc2c1cnn2-c1ccc(Cl)cc1	?
87	COC(=O)C1(C)NC(c2ccc(F)cc2)C2C(=O)N(c3ccccc3)C(=O)C21 (configuration not stated)	-10%
88	Cc1cnc(C(=O)Nc2ccc(F)c(F)c2)cn1	-6%
89	CC1CC(C)(C)NC(C)c2ccccc21 (configuration not stated)	12%
90	CN1CCN(C(=O)/C(=C/c2cccc([N+](=O)[O-])c2)NC(=O)c2ccccc2)CC1	-8%
91	CCCc1nnc(NC(=O)c2cc(=O)c3cc(C)c(C)cc3o2)s1	4%
92	Cc1cccc(N2CCN(C(=O)CCn3c(=S)[nH]c4cc5c(cc4c3=O)OCO5)CC2C)c1 (configuration not stated)	-11%
93	O=C(CCNC(=O)c1ccc(Br)cc1)Nc1ccccc1N1CCOCC1	-6%
94	O=C(Oc1ccc2c(c1)O/C(=C\c1ccncc1)C2=O)c1cccs1	0%
95	COc1ccc(NC(=O)C(=O)NCc2ccco2)cc1	-7%
96	Cn1nccc1C(=O)Nc1ccc(OC(=O)c2ccnn2C)cc1	16%
97	O=C(CN1CCCC1)NC1C2CC3CC(C2)CC1C3 (configuration not stated)	11%
98	COc1ccc(NC(=O)c2sc3nc(N4CCOCC4)c4c(c3c2N)CC(C(C)C)OC4)c(OC)c1 (configuration not stated)	-5%
99	O=C(NCc1ccco1)c1ccc2c(c1)N(Cc1ccccc1)CCS2	4%
100	COc1cccc(NC(=O)CN(C)C(=O)CCCc2nc3ccccc3c(=O)[nH]2)c1	4%

Additional structures.
#	smiles	VDR inh
101	Cc1nn(C)c(Cl)c1CN1CCCC(C(=O)Nc2ccc(-c3cscn3)cc2)C1 (configuration not stated)	7%
102	CC(C)Cc1[nH]c(=O)c(C#N)c2c1CCCC2	-14%
103	CCc1ccc(CNC(=O)c2cnc3sc(N4CCCCCC4)nn3c2=O)cc1	12%
104	Cc1cc(C)nc(SCC(=O)N/N=C/c2ccc3c(c2)OCO3)n1	2%
105	O=C(Cn1c(C(=O)N2CCN(C3CCCC3)CC2)cc2sccc21)c1ccccc1	-1%
106	C=CCNc1nc(N)c([N+](=O)[O-])c(Nc2cccc(Cl)c2)n1	-4%
107	COc1ccc2cc(CO)n(C)c2c1	-16%
108	COc1ccccc1CNS(=O)(=O)c1ccc2c(c1)NC(=O)CO2	-8%
109	COc1ccc(CN2CCNC(=O)C2CC(=O)N2CCCO2)c(OC)c1 (configuration not stated)	-18%
110	COc1ccc(CNC(=O)C(c2ccc(O)cc2)N(Cc2ccco2)C(=O)c2snc(C(N)=O)c2N)cc1 (configuration not stated)	8%
111	C[C@H](NC(=O)c1cc2cc(Cl)ccc2n1C)C(=O)N1CCC(C(=O)O)CC1	-8%
112	Cc1ccc(OCCn2cncn2)c([N+](=O)[O-])c1	-10%
113	Cc1nnc(SCC(=O)Nc2nc(-c3ccccc3)cs2)n1N	7%
114	Cc1cccc(NCc2cccc3ccccc23)n1	-28%
115	CCN(CC)c1ccc2cc(-c3nnc(-c4ccncc4)o3)c(=O)oc2c1	11%
116	Cc1cc(/C=C2\SC(=Nc3ccc(N4CCOCC4)cc3)N(C)C2=O)c(C)n1-c1cccnc1	-5%
117	COc1ccc(NC(=O)C(c2cc3c(cc2[N+](=O)[O-])OCO3)N(C)c2ccccc2)cc1 (configuration not stated)	-9%
118	CN1CCN(CCC(=O)N/N=C/c2ccccc2F)CC1	6%
119	Cc1ccc(NC(=O)CN(C)CC(=O)Nc2ccc(N3CCOCC3)cc2)cc1F	-9%
120	CCC(C#CCN1CCCCC1)(CC)OCCC#N	7%
